TRPV1 potentiator: enhances activation of the human vanilloid receptor TRPV1; TRPV1-expressing cells, Fluo-8 calcium influx, capsaicin EC20 potentiation; host cell line not named in the record; control for the full effect not named in the record; potentiation, % at 8.33 µM; 0.02% of 320,000 active; AID 540277; active means potentiation above 80%; inconclusive means 30% to 80%; inactive means below 30%; note: 0% is about no effect
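Cells expressing TRPV1 were dye-loaded with Fluo-8 and read kinetically: 10 s baseline, 3 min after compound (agonist portion), then 2 min after EC20 capsaicin (allosteric enhancer portion). Calcium-bound dye fluorescence at 480/520 nm.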
D2 PAM: potentiates the human D2 dopamine receptor allosterically. P14416. DiscoveRx D2 beta-arrestin cells, luminescence, 90 min; 100% = 57 uM dopamine signal. potentiation, % (concentration not given with the values). 0.23% of 360,000 active; active = potentiation of 50% or more; inconclusive = 30% to 50%; inactive = 30% or less;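 note: compound concentration not given in the record; tested on top of an EC20 dose of dopamine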
Target sequence (P14416 whole entry, looked up): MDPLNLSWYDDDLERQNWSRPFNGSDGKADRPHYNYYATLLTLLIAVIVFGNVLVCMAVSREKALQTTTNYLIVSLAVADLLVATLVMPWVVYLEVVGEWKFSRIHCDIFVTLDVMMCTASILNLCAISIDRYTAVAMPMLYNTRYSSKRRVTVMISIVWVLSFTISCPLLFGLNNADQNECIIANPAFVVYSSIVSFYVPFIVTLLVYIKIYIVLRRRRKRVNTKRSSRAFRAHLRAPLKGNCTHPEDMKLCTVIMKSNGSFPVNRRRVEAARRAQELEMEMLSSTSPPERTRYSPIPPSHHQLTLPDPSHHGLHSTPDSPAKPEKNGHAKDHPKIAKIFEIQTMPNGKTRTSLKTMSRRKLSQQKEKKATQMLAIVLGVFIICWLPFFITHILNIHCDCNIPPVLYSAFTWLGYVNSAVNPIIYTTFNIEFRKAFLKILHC
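D2 cells co-treated with compound plus 50 nM dopamine (EC20) for 90 min at 37 deg C to detect potentiation. Beta-arrestin recruitment was read as enzyme-fragment luminescence after 1 h at ambient temperature. Full response was set by 57 uM dopamine.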
TRPML1 blocker: human mucolipin-1 channel inhibition | Q9GZU1 | activity change, negative = inhibition, % (concentration not given with the values) | 0.02% of 390,000 active | TRPML1-inducible cells, Ca2+ dye fluorescence, FDSS; stronger effect = lower value; inhibition of EC80 agonist-evoked calcium signal; in the data active means activity change below about -50%; inconclusive means about -30% to -50%; inactive means above about -30%;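 note: stimulus is agonist 54-4 at its EC80 concentration; % is set by controls: 0 for no effect and ±100 for the full control effect; compound concentration not given in the record; the text of the record puts the active cut at -80%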
Target sequence (Q9GZU1 whole entry, looked up): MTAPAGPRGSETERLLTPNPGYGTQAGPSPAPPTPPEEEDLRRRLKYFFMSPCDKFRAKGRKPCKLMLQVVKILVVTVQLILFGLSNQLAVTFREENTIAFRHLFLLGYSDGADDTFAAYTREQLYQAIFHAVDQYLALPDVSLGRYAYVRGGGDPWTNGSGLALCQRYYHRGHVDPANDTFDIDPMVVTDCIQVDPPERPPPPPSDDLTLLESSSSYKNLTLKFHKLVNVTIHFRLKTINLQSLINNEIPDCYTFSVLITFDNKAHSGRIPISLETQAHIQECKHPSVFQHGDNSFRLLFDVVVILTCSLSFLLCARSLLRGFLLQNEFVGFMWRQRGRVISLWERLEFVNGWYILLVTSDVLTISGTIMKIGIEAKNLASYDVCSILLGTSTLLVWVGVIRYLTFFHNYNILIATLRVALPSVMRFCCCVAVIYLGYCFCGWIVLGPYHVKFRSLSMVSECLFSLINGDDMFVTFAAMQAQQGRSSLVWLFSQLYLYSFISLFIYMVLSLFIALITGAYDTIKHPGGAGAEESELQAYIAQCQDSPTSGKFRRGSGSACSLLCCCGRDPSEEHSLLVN
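Tet-induced TRPML1-DL cells loaded with Ca8 no-wash calcium dye were read kinetically on FDSS. Compound addition was followed by EC80 agonist 54-4 (4 uM final); inhibition was read over 110 s.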
CtBP-E1A inh: inhibitors of CtBP/E1A interaction. AlphaScreen GST-E1A/His-CtBP binding, 1536-well; stronger effect = lower value; control for the full effect not named in the record. activity change, % (test concentration not listed). AID 651724. 0.49% of 340,000 active; in the data active means activity change below about -65%; inconclusive means about -30% to -65%; inactive means above about -30%; note: % is set by controls: 0 for no effect and ±100 for the full control effect; compound concentration not given in the record
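In 5 uL wells, 23 nL compound meets equimolar GST-E1A and His-CtBP (5X stock 125 nM each) for 2 h, 37 °C. Beads (5X, 50 ug/mL) then 1 h, 37 °C, dark.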
Six1-Eya2 blk: inhibitors of human Six1/Eya2 interaction. 0.56% of 360,000 active. AlphaScreen GST-Six1/His-Eya2 binding, biochemical; stronger effect = lower value; control for the full effect not named in the record. activity change, % (concentration not given with the values). Q15475+O00167; in the data active = activity change below about -65%; inconclusive = about -30% to -65%; inactive = above about -30%; note: % is set by controls: 0 for no effect and ±100 for the full control effect
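Six1/Eya2 binding was read as AlphaScreen signal after compounds were pinned into GST-Six1 plus His-tagged Eya2 (5X stock 250/500 nM) in pH 8.0 Tris/NaCl/TCEP buffer, beads added, then incubated 1 h, 37 C, dark.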
TRPML1 ag: agonists of human TRPML1 channel | 0.12% of 410,000 active | activation, % (test concentration not listed) | TRPML1-expressing cells, Ca2+ dye fluorescence, FDSS; host cell line not named in the record; reference of the full effect not given here; in the data active = activation above about 50%; inconclusive = about 30% to 50%; inactive = below about 30%; note: 0% is about no effect; the text of the record puts the active cut at 80%
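Kinetic FDSS Ca2+ read in Tet-induced TRPML1-DL cells (ABD Ca8 dye plus quencher, 45-90 min RT loading): baseline, then compound, then 110 s agonist window; EC80 agonist 54-4 at 4uM final added afterwards for a 110 s antagonist window.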
* marks the source's active call; other numbers are inactive results; u = inconclusive; x = no result given.

SMILES	TRPV1 potentiator	D2 PAM	TRPML1 blocker	CtBP-E1A inh	Six1-Eya2 blk	TRPML1 ag
Cn1c(CNc2nc(-c3ccccc3)cs2)nnc1SCC(=O)OC1CCCCC1	9	-8	-8	u	-30	0.7
COc1ccc(-c2nn(-c3ccccc3)cc2CNCCN2CCOC2=O)c(F)c1	-8	-15	10	0	-7	2.2
Cc1ccc(NC(=O)C(=O)NCC2CCCO2)cc1 (centres undefined)	-6	-8	10	x	3	0.5
COc1cc(CNCc2ccccn2)ccc1OCC(=O)NC1CCCCC1	3	-21	9	-29	u	0.5
CCOC(=O)N1CCN(C(=O)NC23CC4CC(CC(C4)C2)C3)CC1	-15	-7	-6	3	-1	-1.7
O=C(N1CCOCC1)N1CCOCC1	26	-8	-11	4	0	-0.7
COc1ccc2[nH]c(C)c(CCNC(=S)Nc3ccccc3C)c2c1	5	-6	35	0	-8	1.1
CCOC(=O)CSc1nnc(CNC(=O)c2ccc(OC)c(OC)c2)n1C	-16	-6	1	-6	-1	0.2
CCC(=O)Nc1c2c(nn1-c1ccc(C)cc1)CS(=O)(=O)C2	3	2	-13	x	6	0.1
Cc1ccc([N+](=O)[O-])cc1S(=O)(=O)NCCc1c(C)[nH]c2c(C)cccc12	4	1	3	4	-7	1.5
CCOC(=O)c1c(NC(=O)C2Cc3ccccc3C(=O)O2)sc2c1CCCC2 (centres undefined)	x	3	5	0	2	-0.5
CC(=O)C[C@@H](O)CC(=O)[C@H]1OC(=O)CCCCCCCCc2ccccc21	x	-9	-20	x	-9	1.1
Cn1nnnc1SCc1ccc([N+](=O)[O-])cc1	1	-3	30	-17	-9	-0.7
CC(C)(C)OC(=O)N1CCC(c2c(C(=O)NCC3CCN(C4CCCC4)C3)cnn2-c2ccccc2Cl)CC1 (centres undefined)	6	-9	5	x	-1	3.7
COC(=O)C1=CO[C@@H](O[C@@H]2O[C@H](CO)[C@@H](O)[C@H](O)[C@H]2O)C2C1CC(O)O[C@H]2C (some centres undefined)	x	-26	-24	3	3	-0.3
Cc1ccccc1CSCC(=O)NC1CCCC1	-11	-11	34	4	1	-0.7
O=C(COC(=O)c1ccccc1C(=O)OCC(=O)NCCc1c[nH]c2ccccc12)NCCc1c[nH]c2ccccc12	5	15	7	-20	-16	-0.6
O=C(NCc1cccc(F)c1)C1CCC(=O)N(C2CC2)C1 (centres undefined)	-1	-5	4	-2	0	1.0
CCOc1ccccc1Nc1nc(N)nc(CN(C)C2CCCCC2)n1	4	-39	12	-15	-25	-1.0
Cc1ccc(NC(=O)CCc2c(C)nn(-c3ccc(N4CCCCC4)nn3)c2C)cc1	4	6	-16	0	11	-0.8
Cn1c(CCC(N)=O)nnc1SCC(=O)Nc1ccccc1C(=O)NC1CC1	-7	-6	-15	4	6	-0.4
CC(C)(CNC(=O)c1cc2ccccc2o1)N1CCOCC1	-9	-2	8	10	1	-0.5
O=C(Nc1ccc2nc3n(c(=O)c2c1)CCCCC3)c1ccccn1	-18	1	12	-15	-16	-0.2
Cc1ccc(S(=O)(=O)NCCC(=O)N(C)Cc2cccs2)cc1	2	-2	-1	6	6	-0.5
O=C(CCc1ccccc1)NNC(=O)Nc1ccccc1	2	-5	17	1	7	1.8
CC(C)Oc1ccc(C(=O)NC(=S)Nc2ccc(Cl)c(C(=O)O)c2)cc1	0	-3	-13	3	2	0.2
C=C(C(=O)O)C(CCCCCC)C(=O)O (centres undefined)	-32	2	x	8	5	x
Cc1ccc(NC(C)C(=O)N/N=C/c2c[nH]c3ccccc23)cc1 (centres undefined)	-1	-15	19	1	-15	0.5
O=C(CN(C(=O)CCC(=O)Nc1nccs1)c1ccccc1F)NCc1ccc(F)cc1	-2	-6	11	7	2	0.8
CCOC(=O)N1CCN(C(=O)C[C@@H]2C[C@@]3(C(=O)OCC)CCCC=C3N(Cc3ccc(Cl)cc3Cl)C2=O)CC1	x	x	x	1	-4	-0.5
O=C(c1ccc(C(=O)N2CCN(c3ccccc3F)CC2)nc1)N1CCN(c2ccccc2F)CC1	7	-9	-3	-1	-5	0.1
Cc1ccc(C(=O)Oc2cccnc2)cc1[N+](=O)[O-]	-2	-9	-14	-10	u	-0.2
O=C(CS(=O)(=O)Cc1ccccc1)NCc1ccc2c(c1)OCO2	-3	-4	-9	1	4	-0.5
CCOc1cc(N2CCOCC2)c(OCC)cc1NC(=O)COc1cccc(Cl)c1	4	-24	27	4	-12	0.4
O=C(c1ccc(S(=O)(=O)Nc2cccc(C(F)(F)F)c2)cc1)N1CCC1	21	0	-28	-16	-3	0.5
CCOc1ccc(NC(=O)CSc2nnc(C)n2Cc2ccccc2)cc1	7	-3	1	1	5	0.5
CCOC(=O)Cn1c(=O)n(Cc2ccc(OC)cc2)c(=O)c2cccnc21	-13	6	12	4	15	1.8
Cc1cccc(C(=O)O[C@@H]2[C@H](Cc3ccccc3)NS(=O)(=O)[C@H]3C[C@@H]4C=C[C@]23O4)c1	1	-6	3	4	2	0.0
O=C(c1ccccc1)N1CCN(S(=O)(=O)N2CCCCC2)CC1	-20	3	7	5	10	-0.5
Cn1c(=O)c2sccc2n(Cc2ccccc2)c1=O	5	-3	15	8	-1	-0.4
C/C(=N\NS(=O)(=O)c1ccc(C)cc1)c1ccc(Br)s1	4	-10	-4	-2	-1	1.5
Cc1nn(C)c(N)c1C(O)(c1nccn1C)C(F)(F)F (centres undefined)	-32	1	4	7	6	0.5
C=CCNC(=O)CSc1nnc(-c2ccncc2)n1CCc1ccccc1	-1	12	9	-3	-2	2.9
CC1CCN(c2[nH]c(=S)c(C#N)c3c2CCCC3)CC1	0	-12	14	15	2	3.2
CCCCN(CC)CCNC(=O)CCC(=O)Nc1ccc2nc(N3CCN(C)CC3)cc(C)c2c1	-2	-36	x	-14	1	x
CC[C@@H](C)[C@@H]1CN([C@@H](CN2CCC[C@H]2CN2C(N)=NC[C@H]2C(C)C)C(C)C)C(=N)N1CCCC1CCCC1	x	x	-11	-21	10	-0.4
Cc1ccc(Cn2nnc3c(=O)[nH]c(C4CCCN(S(=O)(=O)c5ccccc5F)C4)nc32)cc1 (centres undefined)	19	-1	-10	2	-2	1.2
Cc1noc(C)c1-c1ccc(C(=O)N2CCN(C)CC2)c2occc12	x	-16	x	2	-11	-0.3
CC1(c2nnc(-c3ccccc3)o2)CC(c2ccccc2)=NO1 (centres undefined)	x	0	3	2	-1	1.1
CN(C)C(CNC(=O)c1cccc(S(=O)(=O)N2CCc3ccccc3C2)c1)c1ccccc1 (centres undefined)	x	-27	2	-1	-1	-0.4
Cc1cccc(OCC(=O)N2CCCc3ccccc32)c1	u	-6	1	6	0	-0.3
O=C(COc1ccccc1F)N1CCCc2ccccc21	-18	-7	51	4	-15	1.7
CC(C)(C)C(=O)C(Oc1cccc2nonc12)n1cncn1 (centres undefined)	0	-11	2	0	0	3.2
O=C(Nc1cccc2c1CCCC2)c1cc([N+](=O)[O-])ccc1Cl	-3	-25	-1	-3	-7	0.0
CCOC(=O)N1CCC(NC(=O)Cn2cccc2C(=O)c2ccccc2C)CC1	-6	-13	10	4	-1	-0.4
Cc1cc2c(nn1)CCc1nonc1-2	2	5	-3	10	5	0.8
O=C(c1cccs1)N(Cc1cc2ccccc2[nH]c1=O)CC1CCCO1 (centres undefined)	-13	3	4	4	3	-0.1
CC1=C(C(N)=O)C(c2ccc(Cl)c(Cl)c2)n2ncnc2N1 (centres undefined)	7	-2	-1	0	-4	0.2
Cc1nnc(SCC(=O)NNC(=O)c2ccc(F)cc2)n1Cc1ccccc1	x	-13	-16	-1	9	0.7
Cc1nnc(SCC(=O)NCCN2C(=O)CSC2=O)s1	1	13	18	12	6	-0.3
(more compounds)
SMILES	TRPV1 potentiator	D2 PAM	TRPML1 blocker	CtBP-E1A inh	Six1-Eya2 blk	TRPML1 ag
Cc1cc([N+](=O)[O-])cnc1Sc1nccn1C	-9	-3	5	x	3	-0.5
Cc1cc(C)nc(N/N=C/c2c(CO)cnc(C)c2O)n1	1	-25	8	-85*	-75*	1.1
CC(=O)c1ccc(OCCCCOc2ccc(C(C)=O)cc2)cc1	-16	15	x	x	2	x
CC(C)(C)c1ccc(Cn2nnc3c(=O)[nH]c(C4CCCN(C(=O)c5cccs5)C4)nc32)cc1 (centres undefined)	3	-2	3	-4	-13	1.5
COC(=O)[C@@]1(Cc2ccc(F)cc2)[C@H]2C(CC(=O)C(=O)N3CCCC3)C(=O)C[C@H]2CN1C(=O)c1ccccc1 (some centres undefined)	x	x	x	-7	-2	-0.6
COc1ccc(-c2ccnc3c(Br)c(C)nn23)cc1	-2	3	-5	47	37	3.2
CC(=O)Nc1ccc(SCC(=O)NCC2(N3CCCCC3)CCCCC2)cc1	x	-3	7	-2	-4	-0.4
COc1ccc(S(=O)(=O)Nc2ccccc2C(=O)N2CCOCC2)cc1OC	-4	-1	-15	7	-6	0.4
Cc1cc(NC(=O)COC(=O)C(C)Oc2ccc(Cl)cc2Cl)no1 (centres undefined)	21	5	1	10	9	1.8
CCN1CC2=C(OC(N)=C(C#N)C2c2cccs2)/C(=C/c2cccs2)C1 (centres undefined)	3	-28	-13	-15	-17	1.9
Cc1cc(C)cc(NS(=O)(=O)c2csc(C(N)=O)c2)c1	-1	-8	14	-9	3	1.9
Nc1nonc1-n1nnc(C(=O)N/N=C/c2cccc(Cl)c2)c1CSc1ccc(Cl)cc1	-16	-8	12	x	1	2.8
Cc1ccc(CNC(=O)c2ccc(N3CCC4(CC3)CC(c3ccccc3)=NO4)c(NC(=O)c3ccccc3)c2)cc1	16	-7	1	-3	6	1.3
CN(/N=C/c1c[nH]c2ccccc12)c1cnn(-c2ccc(F)c(Cl)c2)c(=O)c1Cl	-1	-6	-8	-3	0	0.7
CN(C)C(/C=C/Nc1ccc(Br)cc1)=C(C#N)C#N	6	-23	-3	-3	-6	-0.2
Cc1cc(C)cc(OCC(=O)NC(C)c2ccccc2)c1 (centres undefined)	-20	-9	6	9	4	0.4
CNc1cncc(C(=O)O)c1	7	11	1	6	3	-0.2
COC(=O)c1ccc(Cn2nnc3c(=O)[nH]c(C4CCCN(S(=O)(=O)c5ccc(C)cc5)C4)nc32)cc1 (centres undefined)	-1	-11	8	x	4	0.4

Screening results from PubChem BioAssay.
